Cruzain inh noDet: cruzain (T. cruzi) inhibition without detergent; purified cruzain, Z-FR-AMC fluorescence, no detergent; 2.3% of 200,000 active; P25779; Potency, µM, for the others: max response, negative = inhibition, most hits filed as inhibitors; AID 1476; active means well fitted curve in the direction sought with a large enough effect; inconclusive means small, poorly fitted or top-dose-only effect, or another doubt; inactive means no such curve, though single readings can be large; an effect the other way counts as inactive or inconclusive;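 further: plate controls were enzyme without inhibitor for no effect and buffer without enzyme for full effect; nearly all actives have a fitted effect of over 40% in size; top concentration of the series not given in the record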
Target sequence (P25779 123-467 limits assumed): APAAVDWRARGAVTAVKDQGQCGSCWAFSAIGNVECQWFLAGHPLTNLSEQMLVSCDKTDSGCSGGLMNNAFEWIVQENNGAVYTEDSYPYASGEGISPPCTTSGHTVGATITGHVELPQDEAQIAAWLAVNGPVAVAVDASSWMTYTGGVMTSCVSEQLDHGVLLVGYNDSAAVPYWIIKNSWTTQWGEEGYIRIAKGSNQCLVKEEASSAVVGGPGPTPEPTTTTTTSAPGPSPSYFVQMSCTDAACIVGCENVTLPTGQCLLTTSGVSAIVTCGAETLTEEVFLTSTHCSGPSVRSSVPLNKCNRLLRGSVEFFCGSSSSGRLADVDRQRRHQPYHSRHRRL
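Detergent-free condition (0.00005% Triton X-100) in acetate buffer pH 5.5 with DTT. 1.5 nM enzyme and compound were pre-mixed 15 min, then 2 uM Z-FR-AMC substrate added; reaction progress from fluorescence change between first and third reads (60 s).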
RE007 growth inh: less growth of the S. pombe RE007 Vpr strain; S. pombe RE007 Vpr strain, BacTiter-Glo ATP luminescence, 24 h; control for the full effect not named in the record; 0.21% of 360,000 active; AID 651644; Potency, µM (highest dose often 92.2 µM), without a hit: at the highest dose activity change, negative = less growth; active = well fitted falling curve with a large enough effect; inconclusive = small, poorly fitted or top-dose-only effect; inactive = no such curve, though single readings can be large or run the other way;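 further: on the % scale 0 is the no-effect control and ±100 the full control effect; nearly all actives have a fitted effect of over 50% in size; the assay follows cell death caused by Vpr and the record does not say whether a fall means rescue or toxicity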
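Fission yeast strain RE007, carrying one chromosomally integrated HIV-1 vpr copy, was seeded at OD 0.01 in PMG+AL medium with 23 nL pinned compound. After 24 h at 30 °C and 99% humidity, viability was read by BacTiter-Glo luminescence.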
Marburg entry inh: Marburg virus entry inhibition; Potency, µM (top dose mostly 37.8 µM), inactives show at the highest dose activity change, negative = inhibition, hits mostly inhibitors; Marburg virus pseudotyped entry inhibition, cell reporter; control for the full effect not named in the record; about a third of the inactives were read at about 46 µM; 1.8% of 300,000 active; active = well fitted inhibition curve with a large enough effect; inconclusive = small, poorly fitted or top-dose-only effect, or effect the other way; inactive = flat fitted curve, though single readings scatter; tested in HEK293 cells; about a fifth of its hits are not listed in these tables; further: on the % scale 0 is the no-effect control and ±100 the full control effect; luciferase read-out
NS1 inh: blocks influenza NS1 protein function | AID 2326 | 0.4% of 270,000 active | Potency, µM (series often up to 46.1 µM), without a hit: at the top dose activity, positive = more growth | S. cerevisiae slowed by influenza A NS1, growth recovery by OD600; further: actives are rising curves; nearly all actives have a fitted effect of over 50% in size
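OD600 was taken as the measure of yeast growth restored by compound in an NS1-expressing S. cerevisiae strain. Cells had been washed out of glucose medium and diluted 1:100 into galactose -URA medium, pH 6.0.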
Lassa entry inh: blocks Lassa virus binding to or entry into cells; Potency, µM (titrated, usually from 37.9 µM), inactives show top-dose activity change, negative = inhibition, most hits filed as inhibitors; Lassa virus pseudotype entry inhibition, cell reporter; control for the full effect not named in the record; AID 540256; 1.2% of 300,000 active; active means well fitted inhibition curve with a large enough effect; inconclusive means small, poorly fitted or top-dose-only effect, or effect the other way; inactive means flat fitted curve, though single readings scatter; tested in HEK293 cells; further: on the % scale 0 is the no-effect control and ±100 the full control effect; nearly all actives have a fitted effect of over 50% in size; luciferase read-out
Cruzain inh Det: blocks cruzain activity in presence of Triton detergent; purified cruzain, Z-FR-AMC fluorescence, 0.01% Triton; 0.43% of 200,000 active; Potency, µM, without a hit: max response, negative = inhibition, most hits filed as inhibitors; P25779; AID 1478; active means well fitted curve in the direction sought with a large enough effect; inconclusive means small, poorly fitted or top-dose-only effect, or another doubt; inactive means no such curve, though single readings can be large; an effect the other way counts as inactive or inconclusive;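 further: plate controls were neutral wells for no effect and buffer without enzyme for full effect; nearly all actives have a fitted effect of over 40% in size; top concentration of the series not given in the record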
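Steps: dispense cruzain (1.5 nM final) in acetate buffer pH 5.5 with DTT and 0.01% Triton X-100; pin-transfer compounds; incubate 15 min RT; add Z-FR-AMC (2 uM final); read fluorescence every 30 s, using the 60 s intensity change.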
StopGo reporter: FMDV 2A StopGo reporter, luciferase signal; AID 1159524; human cells with a luciferase reporter of 2A StopGo recoding; control for the full effect not named in the record; Potency, µM (titrated, usually from 57.9 µM), inactives show at the top dose signal change, negative = less light; 1.2% of 410,000 active; active = well fitted falling curve with a large enough effect; inconclusive = small, poorly fitted or top-dose-only effect; inactive = no such curve, though single readings can be large or run the other way; tested in HEK293T cells; further: on the % scale 0 is the no-effect control and ±100 the full control effect; nearly all actives have a fitted effect of over 45% in size; luciferase light after 4 h
SARS PLP yeast: SARS-CoV PLP inhibition in yeast | Potency, µM (highest dose often 32.9 µM), for the others: at the highest dose activity, positive = growth rescue | 0.19% of 330,000 active | S. cerevisiae expressing SARS-CoV PLpro, growth rescue; control for the full effect not named in the record; further: 0% is about no effect; nearly all actives have a fitted effect of over 55% in size; growth read by luminescence after 48 h
An asterisk follows results filed as active; ? = inconclusive; / = not tested or not shown; & = joins results of further samples; [ ] = another dose, or the depositor's remark. Unless noted, the call rests on the fitted dose curve; in most records, active means well fitted rising curve with a large enough effect; inconclusive means small, poorly fitted or top-dose-only effect; inactive means no such curve, though single readings can be large or run the other way. Potency means the concentration at half of the fitted maximal effect.

SMILES	Cruzain inh noDet	RE007 growth inh	Marburg entry inh	NS1 inh	Lassa entry inh	Cruzain inh Det	StopGo reporter	SARS PLP yeast
O=C(NCc1nnc2c(C(F)(F)F)cc(Cl)cn12)c1ccc(Br)o1	/	4%	-7%[46.1 µM]	7%	8%[46.1 µM]	/	-8%	?
C/C=C/C=N/Nc1nc(-c2ccc([N+](=O)[O-])cc2)cs1	?	109%	-13%	7%	?	-5.5%	8%	-16%
Cc1ccoc1C(=O)N1CCCC(CO)(Cc2ccc(F)cc2)C1 (stereo unspecified)	/	-12%	-18%	5%	-10%	/	?	-8%
Nc1c2c(nc3sc4c(c13)CCCCC4)CCCCC2	-19%	7%	?	-39%	?	-22%	-25%	-23%
COC(=O)c1ccc(COc2ccccc2/C=N/O)o1	/	-4%	-19%[46.1 µM]	-6%	5%	/	-2%	-1%
CC1(C)CC(=O)C2=C(C1)Nc1ccccc1NC2	/	21%	1%[46.1 µM]	/	25%	/	-1%	0%
CCCN1CCOC(CC(=O)Nc2ccc([N+](=O)[O-])cc2)C1=O (stereo unspecified)	/	?	4%[46.1 µM]	/	17%	/	3%	-19%
O=C(/C=C/c1ccccc1)Nc1cc(S(=O)(=O)N2CCOCC2)ccc1N1CCCC1	6%	11%	?	14%	5%	-4.9%	-16%	5%
Cc1c(NC(=O)CSc2cccc3cccnc23)c(=O)n(-c2ccccc2)n1C	13%	-16%	?	-24%	?	6.1%	?	/
C=CCNC(=S)/N=c1\sccn1C	-14%	4%	-2%	-93%	?	-1.3%	25%	13%
Oc1csc(Cc2nc(-c3ccc4ccccc4c3)cs2)n1	?	-6%	-86%	-3%	0%	-4.4%	51%[activator]	-22%
COCCNCc1nc2sc(C)c(-c3ccccc3)c2c(=O)[nH]1	/	-20%	-2%	-3%	-9%	/	-10%	1%
COc1ccc(/C(C)=N/NS(=O)(=O)c2cc(C)ccc2C)c(OC)c1	/	-17%	?	/	-10%	/	73%[activator]	-2%
CC(C)(C)NC(=O)c1cc(F)c(F)cc1Cl	1%	-2%	1%	8%	-4%	3.2%	-23%	6%
CCOC(=O)C1CCN(CC(=O)Nc2c(C(=O)OC)[nH]c3ccccc23)CC1	-1%	/	/	-6%	/	-1.0%	/	10%
CCOc1ccc(NC(=O)CN(C)C(=O)c2ccc(N3CCOCC3)c([N+](=O)[O-])c2)cc1OCC	/	-11%	-4%	4%	17%	/	-1%	?
CCOc1ccc(/C=N/NC(=O)CNC(=O)c2ccc(S(=O)(=O)N3CCOCC3)cc2)cc1	/	-13%	-17%[46.1 µM]	-8%	-17%[46.1 µM]	/	-1%	0%
CCN1C(=O)/C(=C\N2CCCCCC2)SC1=S	-16%	-7%	1%	-18%	?	-6.5%	3%	0%
CCC(=O)Nc1ccc2nc3c(=O)n(C)c(=O)n(C)c3nc2c1	-6%	/	-26%[46.1 µM]	/	13%[46.1 µM]	-0.5%	-15%	/
O=c1[nH]cnc2ccccc12	-4%&-7%&-7%	2%	8%	2%	4%	0.2%&-1.1%&-1.6%	-7%&-11%	-2%
COc1ccc(N(CC(=O)O)S(=O)(=O)c2ccc(OC)c(OC)c2)cc1	-8%	-5%	?	-5%	1%	4.8%	-1%	8%
CC1(C)Cc2cccc(OCC(=O)N3CCN(c4cccc(Cl)c4)CC3)c2O1	/	-8%	?	/	?	/	?	1%
c1ccc(CN2CCN(c3ncnc4c3cnn4-c3ccccc3)CC2)cc1	5%	/	/	/	?	1.4%	?	/
CCOCC(=O)N1CCN(c2ccccc2OC)CC1	/	22%	?	1%	12%	/	5%	2%
Cc1ccc(C)c(Cn2c(=O)n(C)c(=O)c3sccc32)c1	/	28%	1%	-8%	9%	/	?	0%
CN(C)c1ccc(NC2=C([N+](=O)[O-])CS(=O)(=O)C2)cc1	-1%	-4%	19%	3%	14%	-6.4%	/	4%
O=C(Cc1cccc2ccccc12)N/N=C/c1ccc(O)c([N+](=O)[O-])c1	/	-4%	30%[46.1 µM]	-1%	-13%	/	-20%	-1%
O=C(Nc1ccc(O)c2c(=O)cc(-c3ccccc3Cl)oc12)c1cccc(Cl)c1	?	-2%	17%&17%&17%	7%	0%	2.0%	-9%	-1%
CCCS(=O)(=O)n1nc(-c2ccc(OC)cc2)cc1N	-16%	0%	/	1%	/	1.1%	30%[activator]	9%
Cc1ccc2[nH]c(CN3CCN(C)C(CCO)C3)c(C)c2c1 (stereo unspecified)	/	2%	/	-5%	/	/	-11%	-5%
COc1ccc(C(=O)NC2CC3CCCC(C2)N3Cc2ccccc2)c(OC)c1 (stereo unspecified)	/	7%	/	7%	/	/	-2%	0%
CC1CC(OC(=O)C2CCN(S(=O)(=O)c3ccc(F)cc3)CC2)C(=O)O1 (stereo unspecified)	/	14%	-17%[46.1 µM]	/	10%	/	-9%	2%
CCOc1ccc(-n2nc3cc(C)c(NC(=O)c4cc(OCC)c(OCC)c(OCC)c4)cc3n2)cc1	12%	/	-2%[46.1 µM]	/	1%[46.1 µM]	5.1%	-6%	/
Cc1cc(C)cc(NC(=O)C2CC(=O)n3ncnc3N2)c1 (stereo unspecified)	/	2%	/	0%	/	/	-12%	1%
S=C(Nc1ccc(Oc2ccccc2)cc1)NC1CCCCCC1	5%	2%	?	-25%	?	-4.9%	35%[activator]	-59%
Nn1c(Cc2cccc3ccccc23)nnc1SCc1ccc(Cl)c(Cl)c1	?	2%	?	?	4%	-0.3%	-19%	7%
CCn1cc2c(n1)-c1c(oc(C(=O)Nc3cccc(C)c3C)c1C)CC2	-2%	/	/	/	7%[46.1 µM]	-2.5%	39%[activator]	/
CC(Oc1ccc(F)cc1)C(=O)Nc1nc(-c2ccccn2)cs1 (stereo unspecified)	/	?	?	/	?	/	?	/
O=C(COc1ccccc1[N+](=O)[O-])N/N=C/c1ccccn1	-12%	-3%	/	0%	/	0.1%	12%	0%
CCCCCCC(C)(C)c1ccc([C@@H]2C[C@H](O)CC[C@H]2CCCO)c(O)c1	?	-1%[18.4 µM]	13µM*	-67%	?	-17%	?	/
CCOC(=O)C1=C(C)NC(=O)NC1c1ccc2c(c1)OCO2 (stereo unspecified)	3%	-4%	7%[46.1 µM]	-1%	5%	-4.9%	-20%	16%
Cn1c(O)c(/C=N/N2CCOCC2)c(=O)n(C)c1=S	/	-6%	8%	-1%	6%	/	-20%	-3%
CCCCn1c(N)c(N(CC(C)C)C(=O)CSCc2ccc(Cl)c(Cl)c2)c(=O)[nH]c1=O	/	-4%	?	/	?	/	-26%	2%
CCOC(=O)/C(=C/c1ccco1)NC(=O)c1ccc(Br)o1	/	12%	-7%[46.1 µM]	-1%	9%	/	-6%	1%
CCN(CC)c1ccc(C=C2C(=O)OC3(CCCC3)OC2=O)cc1	-13%	-4%	15%	-8%	?	-0.2%	-5%	16%
COc1ccc(OCCNS(=O)(=O)c2ccc3oc4ccccc4c3c2)cc1	-16%	9%	-9%	-5%	-3%	4.8%	-5%	1%
C(=N\c1nc2ccccc2n1CCN1CCOCC1)/c1cccs1	-8%	-1%	11%	10%	10%	-3.9%	30%[activator]	-1%
Cn1c2c(c(=O)n(C)c1=O)C(NC(=O)C(C)(C)C)(C(F)(F)F)C(=O)N2 (stereo unspecified)	-12%	7%	-3%	9%	-7%	9.9%	-10%	12%
CCC(C)NC(=O)COC(=O)c1cccnc1Nc1ccccc1F (stereo unspecified)	2%	-8%	14%	-10%	8%	-3.0%	0%	-8%
O=S(=O)(c1ccc(S(=O)(=O)n2cnc3ccccc32)cc1)N1CCCCCC1	4%	16%	20%	4%	5%	-1.8%	2%	-2%
C[N+]12CCC(CC1)C(C#N)(N1CCOCC1)C2 (stereo unspecified)	10%	-4%	8%	?	13%	2.6%	11%	4%
CC(C)CC1=NN(C(=O)c2cccnc2)C(O)(C(F)(F)F)C1 (stereo unspecified)	-9%	10%	?	-4%	17%	0.8%	-3%	-12%
O=C(NNC(=O)c1ccc(Cn2cccn2)o1)NC12CC3CC(CC(C3)C1)C2	/	-2%	18%[46.1 µM]	-9%	?	/	2%	?
Cc1ccc(CN(Cc2cccn2-c2nnc(N3CCCC3=O)s2)C(=O)Nc2ccccc2Cl)cc1	5%	/	-14%[46.1 µM]	/	/	-3.1%	-11%	/
Cc1ccc(/C=c2/sc3n(c2=O)CCCN=3)o1	-17%	-18%	?	-12%	18%	-7.3%	0%	-40%
O=S(=O)(c1cccc2ccccc12)N1CCN(c2ccc(Cl)c(Cl)c2)CC1	20µM*	/	?	/	?	-1.4%	-16%	/
O=C(COC(=O)CNC(=O)c1ccccc1)Nc1ccc2c(c1)OCO2	/	7%	-7%[46.1 µM]	/	0%[46.1 µM]	/	-6%	-3%
CC(=O)c1ccc(N2CCN(C(=O)C(=O)c3cn(CC(=O)N4CCCCCC4)c4ccccc34)CC2)cc1	/	-2%	-15%	?	9%	/	?	23%
CCOC(=O)C1CCCN(C(=S)NC2CCCCC2)C1 (stereo unspecified)	/	7%	-5%[46.1 µM]	/	17%	/	-8%	2%
CCCc1[nH]nc2c1C(c1ccc(OC)cc1OC)C(C#N)=C(N)O2 (stereo unspecified)	-15%	9%	-4%	-25%	-3%	-2.9%	-12%	-4%

Additional entries follow.
SMILES	Cruzain inh noDet	RE007 growth inh	Marburg entry inh	NS1 inh	Lassa entry inh	Cruzain inh Det	StopGo reporter	SARS PLP yeast
CCOc1ccc(OCc2cccc(C(=O)N3CCCCCC3)c2)cc1	/	12%	?	/	3.5µM*	/	-72%	0%
CNC(=O)c1nnsc1S(=O)(=O)c1ccc(Cl)cc1	/	?	2.8µM*	/	?	/	?	-26%
Cc1ccc(-n2ncc3c(N4CCC5(CC4)OCCO5)ncnc32)c(C)c1	-5%	0%	/	7%	/	6.8%	40µM*	6%
CC1CN(C(C)C(=O)NC(c2ccccc2)c2ccccc2)CC(C)O1 (stereo unspecified)	/	-2%	4%[46.1 µM]	0%	?	/	-9%	-10%
C[N+]1(CC(=O)Nc2ccccc2Cl)CCN(C(=O)c2cccs2)CC1	3%	-7%	3%[46.1 µM]	-9%	0%	-0.6%	-3%	-1%

Compound activity deposited in PubChem by National Center for Advancing Translational Sciences (NCATS).
